Screening data from PubChem BioAssay.
ALR H2O2 inh: inhibitors of human ALR sulfhydryl oxidase, primary screen, biochemical, H2O2 detection, HRP-luminol luminescence, single point; 290,000 tested, 3.8% active; purified ALR, DTT oxidation; inhibition, % (concentration not given with the values); AID 485317, 2010; FAD-linked sulfhydryl oxidase ALR (Homo sapiens), P55789;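 active = mean and each replicate at 75% or more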;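 also: stock transfer was 7.5 nL into about 7.5 µL; 0% = neutral wells and 100% = wells with inactivated enzyme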
HNF4A DNA FP: change in binding of human HNF4A to DNA, primary screen, biochemical, fluorescence polarization, FITC-DNA. Hepatocyte nuclear factor 4-alpha (Homo sapiens), P41235. 1 h. activity change, % at 10 µM. 360,000 tested, 0.3% active; in the data active = activity change above about 30%, passing the limit was not always enough;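 also: controls were the assay level and a saturating level of protein; the project sought stronger binding though the title names inhibitors; some compounds called inactive have numbers as strong as hits; positive values seem to mean higher polarization but the record does not say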
FGF22 binding: binders of human FGF22 protein, primary screen, FGF22 synaptogenesis inhibitor project, biophysical, thermal shift, single point; Fibroblast growth factor 22 (Homo sapiens), Q9HCT0; recombinant FGF22 thermal shift, SYPRO orange fluorescence; percent of sucrose octasulfate shift, DMSO zero; calls only at 9.99 µM; 340,000 tested, 1.5% active;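 active = melting point raised past a set limit in the mean and every replicate; three in four hits are not shown here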
Target sequence (Q9HCT0 whole entry, looked up): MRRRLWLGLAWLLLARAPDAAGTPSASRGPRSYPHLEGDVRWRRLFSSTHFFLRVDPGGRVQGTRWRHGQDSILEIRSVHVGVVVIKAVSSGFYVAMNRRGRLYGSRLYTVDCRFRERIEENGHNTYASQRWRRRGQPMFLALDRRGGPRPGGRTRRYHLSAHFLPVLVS
Beta2AR agonist: beta2AR agonists driving receptor internalization, primary screen, cell-based, FAP fluorogen, flow cytometry | Beta-2 adrenergic receptor (Homo sapiens), P07550 | Am2.2-beta2AR cells; reference of the scale not given here | response, % (concentration not given with the values) | 340,000 tested, 0.43% active;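 active = response above a set limit, near 3 SD of response in nonfluorescent compounds, cut at about 42% in these data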;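 also: stock transfer was 100 nL into about 11 µL; a reference agonist was the positive control; negative values mostly stem from fluorescent compounds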
Target sequence (P07550 whole entry, looked up): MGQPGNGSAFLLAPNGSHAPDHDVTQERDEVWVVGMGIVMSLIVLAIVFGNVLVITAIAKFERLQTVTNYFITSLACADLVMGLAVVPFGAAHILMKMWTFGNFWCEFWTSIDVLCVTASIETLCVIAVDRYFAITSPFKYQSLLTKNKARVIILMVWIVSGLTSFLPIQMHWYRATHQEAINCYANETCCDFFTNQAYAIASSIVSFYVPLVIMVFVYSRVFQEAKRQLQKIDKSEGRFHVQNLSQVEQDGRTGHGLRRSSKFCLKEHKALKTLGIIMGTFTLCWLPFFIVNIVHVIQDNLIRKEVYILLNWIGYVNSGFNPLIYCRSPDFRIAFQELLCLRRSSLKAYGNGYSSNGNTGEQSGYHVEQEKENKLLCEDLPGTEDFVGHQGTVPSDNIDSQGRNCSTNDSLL
UCH37 inh: inhibitors of human UCH37 deubiquitinase, primary screen, biochemical, Ub-AMC cleavage, fluorescence | Ubiquitin carboxyl-terminal hydrolase isozyme L5 (Homo sapiens), Q9Y5K5 | purified proteasome/UCH37 | inhibition, % (concentration not given with the values) | 330,000 tested, 0.33% active;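 active = mean of two replicates above 20%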;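 also: 0% = compound-free wells with enzyme and 100% = wells lacking proteasome; stock transfer was 100 nL into about 20 µL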
Target sequence (Q9Y5K5 whole entry, looked up): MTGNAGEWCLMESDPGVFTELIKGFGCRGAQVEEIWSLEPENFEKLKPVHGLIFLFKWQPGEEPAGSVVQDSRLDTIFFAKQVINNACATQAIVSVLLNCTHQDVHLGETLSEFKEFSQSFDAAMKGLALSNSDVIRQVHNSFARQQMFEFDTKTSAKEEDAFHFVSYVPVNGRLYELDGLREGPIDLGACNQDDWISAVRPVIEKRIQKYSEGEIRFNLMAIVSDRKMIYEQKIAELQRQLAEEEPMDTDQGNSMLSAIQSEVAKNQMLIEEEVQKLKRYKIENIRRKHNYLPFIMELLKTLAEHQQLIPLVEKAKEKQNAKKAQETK
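Signal – fluorescence, ex 355 nm, em 460 nm · System – Proteasome-bound UCH37 · Input – 0.15 nM proteasome as dispensed · Timing – 30 min preincubation with enzyme, 25 min cleavage at room temperature · Read-out basis – percent inhibition of cleavage signal versus uninhibited and no-proteasome wells · Medium – Tris-HCl pH 7.4 with ATP-MgCl2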
Ecoli rRNA inh: reduced GFP signal of wild-type E. coli, primary screen, bacterial rRNA inhibitor project, GFP/RFP fluorescence, OD600, single point; E. coli WT GFP vs humanized-ribosome RFP mutants, 24 h; hits give low values; DMSO median 0, no signal -100; GFP signal change (wild-type ribosome), % (concentration not given with the values); 350,000 tested, 1.6% active; AID 720706, 2013;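 active = significant combined selectivity score with lowered wild-type GFP, culture density cut under 30%, mutant RFP and density less affected; inactive = any of these conditions unmet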; also: one replicate is shown; some compounds called inactive have numbers as strong as hits
Ecoli growth: E. coli growth inhibition, primary screen, OD600; OD600 absorbance (concentration not given with the values); 330,000 tested, 0.21% active; Escherichia coli growth, 23 h; hits give low values; AID 1053175, 2014;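 active = OD600 absorbance below the run mean of sample wells minus 3.6 SD, in any replicate, cut at about 0.56 in these data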;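 also: stock transfer was 300 nL into about 60 µL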
Ecoli rRNA inh OD600: further read-out of Ecoli rRNA inh, marked with its call; OD600 change, %; measured here: OD600 growth;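 optical density of the mix in the first replicate; 0 = DMSO median and -100 = no signal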
Ecoli rRNA inh RFP: also measured in Ecoli rRNA inh; calls as there; RFP signal change, %; measured here: RFP humanized mutant strains;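 first replicate; 0 = DMSO median and -100 = no signal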
Starred values were filed as active, the others as inactive; i = inactive; / = not tested or not shown.

SMILES	ALR H2O2 inh	HNF4A DNA FP	FGF22 binding	Beta2AR agonist	UCH37 inh	Ecoli rRNA inh	Ecoli rRNA inh OD600	Ecoli rRNA inh RFP	Ecoli growth
COc1ccc2cc(C)c3nnc(SCc4cccnc4)n3c2c1	3	-1.1	i	-6	0.1	7	22	0.1	0.65
O=C(COC(=O)c1cc(S(=O)(=O)N2CCOCC2)ccc1Cl)NCc1ccco1	2	14	i	2	-1.6	-1	-7	1.5	0.68
C#CCNC(=O)C1=C[C@H](c2ccc(C(F)(F)F)cc2)C[C@H](OCCCCO)O1	/	3.4	i	1	-2.0	-20	7	14	/
NS(=O)(=O)c1ccc(NC(=O)CSc2ccccn2)cc1	15	0.7	/	1	4.7	/	/	/	0.72
CCc1ccc(O)c(N=Cc2ccccc2O)c1	74	17	i	-51	3.5	1	18	-1.2	0.7
CCC(C)(C)n1nnnc1CN1CCC(NC(=O)c2ccccc2C)CC1	/	0.1	/	-2	1.6	/	/	/	0.69
CCN(CC)S(=O)(=O)c1ccc(N2CCCCC2)c(NC(=O)/C=C/c2cc(OC)c(OC)c(OC)c2)c1	1	0.1	i	9	-11	8	11	-1.0	0.7
CC(C)OCCCNC(=O)c1cc(S(=O)(=O)N2CCCCC2)c[nH]1	-3	0.2	i	-3	5.2	6	13	-3.5	0.73
N#Cc1nc(COc2cccc(Cl)c2)oc1N1CCN(c2ccccc2)CC1	-7	-0.4	i	-2	0.2	-17	-19	23	0.74
CCOC(=O)c1cc(-c2ccccc2)nn1Cc1cc(CC)no1	/	1.8	i	-16	3.9	0	-8	4.4	0.66
CN(C)S(=O)(=O)c1cc(NC(=O)CN2CCCc3ccccc32)ccc1Cl	-5	15	i	9	6.0	1	-8	63	0.72
C=C(C)C(=O)Nc1cccnc1Oc1ccc(F)cc1F	-15	1.9	i	-10	5.4	0	-5	-0.5	0.72
O=C(O)CCCCCNC(=O)Cn1nnc2ccccc2c1=O	-6	-1.4	i	4	1.6	7	6	-6.1	0.68
COc1c(C)cc(NC(=O)c2ccc3c(c2)NC(=O)CO3)cc1C	-4	-3.8	i	5	0.9	-5	1	-2.2	0.69
CC(NC(=O)c1ccc(CS(C)(=O)=O)cc1)c1cccc2ccccc12 (stereo not drawn)	/	0.2	i	0	1.4	-2	-5	-0.7	0.7
Cc1ccccc1NC(=O)/C(=C\c1cccs1)NC(=O)c1ccccc1	/	-4.2	/	-7	3.7	/	/	/	0.68
COc1ccc(NC(=O)c2cc3ccccc3o2)cc1	-9	-1.4	/	-3	-1.4	/	/	/	0.73
O=C1C=C(OCCF)CC(c2cccc(Cl)c2)O1 (stereo not drawn)	/	1.9	i	/	/	0	-2	-1.4	/
Cc1cccc(NC(=O)CSc2nnc(-c3ccncc3)n2CC2CCCO2)c1 (stereo not drawn)	0	-0.8	i	7	2.9	2	7	-2.3	0.68
Cc1ccc2nc(SCc3cccc([N+](=O)[O-])c3)nc(C)c2c1	-1	-2.9	/	-2	6.1	/	/	/	0.81
Cc1ccccc1-c1ccc(C(=O)Nc2cccc(F)c2)o1	22	-0.2	i	-8	0.7	-13	-35	-18	0.66
O=C(NC(Cc1ccccc1)C(=O)O)/C(=C\c1cccc([N+](=O)[O-])c1)NC(=O)c1ccco1 (stereo not drawn)	74	-0.5	i	-1	4.6	3	5	-0.8	0.71
Cc1ccccc1N(CC(=O)N/N=C/c1ccc(F)cc1)C(=O)c1ccccc1	-3	-0.8	/	-9	/	/	/	/	/
COc1ccccc1NS(=O)(=O)c1ccc2c(c1)OCCO2	/	-4.9	i	1	2.5	2	-8	0.4	0.69
COc1c(C)cc(Br)cc1C(=O)Nc1ccc(Cc2ccncc2)cc1	/	-0.7	/	-12	0.6	-51	-73	-9.2	0.67
CC(C)n1c(Nc2ccccc2)nc2ccccc21	17	-1.0	/	-11	4.3	/	/	/	0.71
Cc1nc2[nH]c(=O)n(O)c(=O)c2s1	/	0.0	i	-4	/	4	10	0.5	/
COc1cccc(CN(CC(=O)NCc2ccco2)C(=O)CNS(=O)(=O)c2ccccc2)c1	0	-0.8	i	3	-0.1	2	-2	2.1	0.7
CC12CCC(C(=O)NCc3ccc(F)cc3)(OC1=O)C2(C)C (stereo not drawn)	/	2.7	i	2	4.1	7	12	3.0	0.69
O=C1CC(/C=C/c2ccco2)=Nc2ccccc2N1	-2	-7.8	/	3	-0.7	/	/	/	0.68

Fetched by structure from the list above:
SMILES	ALR H2O2 inh	HNF4A DNA FP	FGF22 binding	Beta2AR agonist	UCH37 inh	Ecoli rRNA inh	Ecoli rRNA inh OD600	Ecoli rRNA inh RFP	Ecoli growth
CC(C)n1c(Nc2ccccc2)nc2ccccc21	17	-1.0	/	-11	4.3	/	/	/	0.71
COc1ccccc1NS(=O)(=O)c1ccc2c(c1)OCCO2	/	-4.9	i	1	2.5	2	-8	0.4	0.69
Cc1ccccc1-c1ccc(C(=O)Nc2cccc(F)c2)o1	22	-0.2	i	-8	0.7	-13	-35	-18	0.66
Cc1nc2[nH]c(=O)n(O)c(=O)c2s1	/	0.0	i	-4	/	4	10	0.5	/

Structures from the list above that contain a furan ring, fused or not, in the order listed:
SMILES	ALR H2O2 inh	HNF4A DNA FP	FGF22 binding	Beta2AR agonist	UCH37 inh	Ecoli rRNA inh	Ecoli rRNA inh OD600	Ecoli rRNA inh RFP	Ecoli growth
O=C(COC(=O)c1cc(S(=O)(=O)N2CCOCC2)ccc1Cl)NCc1ccco1	2	14	i	2	-1.6	-1	-7	1.5	0.68
COc1ccc(NC(=O)c2cc3ccccc3o2)cc1	-9	-1.4	/	-3	-1.4	/	/	/	0.73
Cc1ccccc1-c1ccc(C(=O)Nc2cccc(F)c2)o1	22	-0.2	i	-8	0.7	-13	-35	-18	0.66
O=C(NC(Cc1ccccc1)C(=O)O)/C(=C\c1cccc([N+](=O)[O-])c1)NC(=O)c1ccco1 (stereo not drawn)	74	-0.5	i	-1	4.6	3	5	-0.8	0.71
COc1cccc(CN(CC(=O)NCc2ccco2)C(=O)CNS(=O)(=O)c2ccccc2)c1	0	-0.8	i	3	-0.1	2	-2	2.1	0.7
O=C1CC(/C=C/c2ccco2)=Nc2ccccc2N1	-2	-7.8	/	3	-0.7	/	/	/	0.68

Other compounds
SMILES	ALR H2O2 inh	HNF4A DNA FP	FGF22 binding	Beta2AR agonist	UCH37 inh	Ecoli rRNA inh	Ecoli rRNA inh OD600	Ecoli rRNA inh RFP	Ecoli growth
CCNc1ncnc2c1cnn2C	-6	-2.0	i	-6	4.7	2	-15	-4.7	0.69
O=C(NCc1ccco1)c1cc(S(=O)(=O)N2CCCC2)ccc1Cl	0	4.5	i	0	1.0	0	-4	-1.7	0.66
CCOc1cccc2sc(N(CCN(C)C)C(=O)c3ccc4ccccc4c3)nc12	-15	2.2	/	9	1.9	/	/	/	0.63
COc1cc(NC(=O)C[n+]2ccc(C(=O)c3ccccc3)cc2)cc(OC)c1	-4	4.3	i	-8	5.4	-10	-1	9.6	0.68
Cc1ccc(S(=O)(=O)N2CCOCC2)cc1NC(=O)CSc1nccn1C	/	1.1	/	6	2.0	/	/	/	0.7
CCCCCCCCCCCCCCCC(=O)OC(CC(=O)O)C[N+](C)(C)C (stereo not drawn)	/	-3.1	i	26	11	13	-4	-1.0	0.64
O=C(O)CNS(=O)(=O)/C=C/c1ccccc1	-3	-2.0	i	17	1.0	4	8	-1.2	0.7
C[C@@H](C(=O)CC(=O)OC(C)(C)C)[C@@H](O)c1ccccc1	-8	2.6	i	2	-1.8	13	15	5.9	/
Cc1ccc2c(CSc3nc4ccccc4c(=O)n3CCCO)cc(=O)oc2c1C	-9	3.2	/	6	4.7	/	/	/	0.75
O=C(CN1C(=O)NC2(CCCC2)C1=O)Nc1cc(Cl)ccc1N1CCCCC1	4	-1.4	i	3	4.3	-40	-57	-6.6	0.7
COc1ccc(C(c2nnnn2C(C)(C)C)N2CCN(C)CC2)cc1OC (stereo not drawn)	-2	1.2	/	9	1.8	/	/	/	0.71
NC(=O)CC(NC(=O)Cc1ccc(Br)cc1)c1ccc(NCCc2cccc(F)c2)c([N+](=O)[O-])c1 (stereo not drawn)	-2	29	/	-1	1.0	/	/	/	0.69
CCN(CC)S(=O)(=O)c1ccc2c(c1)N(CC(=O)NCc1ccccn1)C(=O)CO2	-4	2.1	/	1	0.1	8	23	-9.9	0.64
Cc1oc2ccc(OCc3ccc(F)cc3)cc2c1C(=O)O	/	3.2	/	0	5.8	/	/	/	0.67
Cc1cc(Cl)ccc1OCC(=O)NCCCN1CCOCC1	-5	2.0	/	-5	5.2	/	/	/	0.7
CS(=O)(=O)N(CC(=O)NCC1CCCO1)c1ccc(Cl)c(Cl)c1 (stereo not drawn)	-1	0.4	i	0	-2.5	1	-4	1.9	0.68
COCCN(C(=S)Nc1ccc(C(C)C)cc1)C(C)c1cccs1 (stereo not drawn)	/	2.1	i	16	4.5	2	-3	-1.6	0.69
COc1ccc(-c2nc(C)ncc2N=Nc2ccccc2)cc1	-14	0.3	/	-7	3.4	/	/	/	0.73

Some of the compounds tested, so the mix of outcomes need not match the whole.
